hNpr1 antagonist – human Npr1 receptor antagonism; HEK293 hNpr1 GloSensor cGMP, ANP-stimulated luminescence; Potency, µM (doses to about 46.3 µM), inactives show at the top dose activity change, negative = inhibition, most hits filed as inhibitors; 76,000 tested, 1.6% active; AID 1347048; active = well fitted inhibition curve with a large enough effect; inconclusive = small, poorly fitted or top-dose-only effect; inactive = no such curve, though single readings can be large or run the other way;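 note: nearly all actives have a fitted effect of over 60% in size; nearly all hits also lower the signal before the agonist is added; a reference antagonist and vehicle were the controls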
Target sequence (P16066 whole entry, looked up): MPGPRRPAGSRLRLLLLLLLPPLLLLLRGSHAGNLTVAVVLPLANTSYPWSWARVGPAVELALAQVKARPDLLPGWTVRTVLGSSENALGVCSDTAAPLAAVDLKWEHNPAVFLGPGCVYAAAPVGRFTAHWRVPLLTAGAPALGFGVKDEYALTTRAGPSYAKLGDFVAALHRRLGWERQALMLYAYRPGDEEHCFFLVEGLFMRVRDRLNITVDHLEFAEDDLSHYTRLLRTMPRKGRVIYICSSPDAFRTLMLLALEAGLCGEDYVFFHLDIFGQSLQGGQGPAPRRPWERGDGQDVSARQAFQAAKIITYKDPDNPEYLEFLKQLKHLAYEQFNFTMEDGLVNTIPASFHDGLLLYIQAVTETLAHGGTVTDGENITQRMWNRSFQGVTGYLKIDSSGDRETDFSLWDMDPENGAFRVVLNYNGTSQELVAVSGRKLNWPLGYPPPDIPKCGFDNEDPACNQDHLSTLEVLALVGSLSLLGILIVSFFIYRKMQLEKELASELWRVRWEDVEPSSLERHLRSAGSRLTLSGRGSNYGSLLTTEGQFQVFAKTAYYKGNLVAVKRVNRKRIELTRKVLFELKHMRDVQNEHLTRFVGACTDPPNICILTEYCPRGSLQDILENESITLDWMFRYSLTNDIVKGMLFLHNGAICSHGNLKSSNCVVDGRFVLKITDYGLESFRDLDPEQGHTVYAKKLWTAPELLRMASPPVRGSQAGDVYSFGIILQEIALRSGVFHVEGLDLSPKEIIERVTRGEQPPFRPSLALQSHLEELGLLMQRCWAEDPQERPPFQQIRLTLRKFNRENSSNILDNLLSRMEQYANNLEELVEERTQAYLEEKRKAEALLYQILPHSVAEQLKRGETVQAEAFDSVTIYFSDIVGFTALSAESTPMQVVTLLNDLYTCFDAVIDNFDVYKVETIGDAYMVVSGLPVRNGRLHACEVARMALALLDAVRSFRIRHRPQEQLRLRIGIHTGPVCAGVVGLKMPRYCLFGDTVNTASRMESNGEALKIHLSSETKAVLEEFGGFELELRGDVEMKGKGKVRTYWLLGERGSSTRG
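HEK293 cells stably expressing human Npr1 and cGMP GloSensor pGS-40F, loaded 2 h with 2% GloSensor reagent, given compound 30 min at room temperature. Luminescence read before and 20 min after 0.1 nM hNppA.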
* hit, by the source's call; ? = inconclusive; [ ] = dose if it differs, or a comment. % is set by controls: 0 for no effect and ±100 for the full control effect; potency is the fitted concentration of half-maximal effect. These rows are one share of the data. The share of hits here may be higher or lower than overall.

Sample of the layout (14 entries):
hNpr1 antagonist	molecule
-1%	CC[C@H]1CN(S(=O)(=O)c2ccc(OC)cc2)CC[C@H]1CC(=O)N(CC)C(=O)NCCCN(C)C
2%	CCNc1nccc(N2CCC(CC(=O)NCc3ccc(OC)c(OC)c3)CC2)n1
1%	CCCNC(=O)N1CCN(C(=O)N2CC3CC(C2)[C@H]2CCCC(=O)N2C3)CC1 (some centres not stated)
-21%	CN1C(=O)c2cccn2CC1C(=O)NCCCN1CCCc2ccccc21 (configuration not stated)
2%	O=C(NCc1cccc(F)c1)C1CCN(C(=O)c2ncn3c2COC(c2ccc(F)cc2)C3)CC1 (configuration not stated)
-6%	O=C(c1ccccc1OCC1CCCN(C2CCCC2)C1)N1CCCC1 (configuration not stated)
1%	COCC1CCN(Cc2cc3cc4c(cc3nc2-c2ccc(Cl)cc2)OCO4)C1 (configuration not stated)
3%[70.6 µM]	COc1ccc(NC(=O)N[C@H]2[C@H](O)[C@@H](N3CCC(C(N)=O)CC3)[C@@H]3OC[C@H]2O3)cc1
-18%[70.6 µM]	Cc1ccccc1-c1cnc2n[nH]c(-c3ccc4c(c3)OCO4)c2n1
21%	CCn1nccc1C(=O)N1CCC2(CC1)CC(OCC1CC1)CCO2 (configuration not stated)
3%	O=C(NCc1ccccc1)c1ccccc1OC1CN(C2CCC2)C1
-19%	CCc1cc(=O)n(CC(=O)Nc2cc(C)on2)c(-c2ccccc2)n1
-3%	COc1ccc(NC(=O)Cn2cccc2-c2nc(-c3ccc(F)cc3)no2)cc1
-28%	CCOc1cccc(CNC(=O)c2nnn3c2COC(c2ccc(C)cc2)C3)c1 (configuration not stated)

The whole of this part, repeating the preview:
hNpr1 antagonist	molecule
-1%	CC[C@H]1CN(S(=O)(=O)c2ccc(OC)cc2)CC[C@H]1CC(=O)N(CC)C(=O)NCCCN(C)C
2%	CCNc1nccc(N2CCC(CC(=O)NCc3ccc(OC)c(OC)c3)CC2)n1
1%	CCCNC(=O)N1CCN(C(=O)N2CC3CC(C2)[C@H]2CCCC(=O)N2C3)CC1 (some centres not stated)
-21%	CN1C(=O)c2cccn2CC1C(=O)NCCCN1CCCc2ccccc21 (configuration not stated)
2%	O=C(NCc1cccc(F)c1)C1CCN(C(=O)c2ncn3c2COC(c2ccc(F)cc2)C3)CC1 (configuration not stated)
-6%	O=C(c1ccccc1OCC1CCCN(C2CCCC2)C1)N1CCCC1 (configuration not stated)
1%	COCC1CCN(Cc2cc3cc4c(cc3nc2-c2ccc(Cl)cc2)OCO4)C1 (configuration not stated)
3%[70.6 µM]	COc1ccc(NC(=O)N[C@H]2[C@H](O)[C@@H](N3CCC(C(N)=O)CC3)[C@@H]3OC[C@H]2O3)cc1
-18%[70.6 µM]	Cc1ccccc1-c1cnc2n[nH]c(-c3ccc4c(c3)OCO4)c2n1
21%	CCn1nccc1C(=O)N1CCC2(CC1)CC(OCC1CC1)CCO2 (configuration not stated)
3%	O=C(NCc1ccccc1)c1ccccc1OC1CN(C2CCC2)C1
-19%	CCc1cc(=O)n(CC(=O)Nc2cc(C)on2)c(-c2ccccc2)n1
-3%	COc1ccc(NC(=O)Cn2cccc2-c2nc(-c3ccc(F)cc3)no2)cc1
-28%	CCOc1cccc(CNC(=O)c2nnn3c2COC(c2ccc(C)cc2)C3)c1 (configuration not stated)
2%	CO[C@H]1C(=O)N(C(C)C)[C@H]1C1CCN(C(=O)Nc2ccc(C)c(C)c2)CC1
0%	COc1ccc(C(=O)N[C@@H]2CCC[C@@H]2C(=O)N2CCN(c3cccc(Cl)c3)CC2)cn1
0%[70.6 µM]	COc1ccc(C(=O)N(C)Cc2cccn2C)cc1
-2%	COc1ccc(C(=O)N[C@@H]2CN(c3ncccn3)C[C@H]2CN(C)C)cc1OC
-13%	CCOc1cc(=O)n2c(c1C(=O)Nc1ccc(Cl)cc1Cl)CCCC2
-22%	CCO[C@H]1CN(C(=O)CCc2ccc(-c3ccc(Cl)cc3)[nH]2)C[C@@H]1O

Pulled one by one from above (2):
hNpr1 antagonist	molecule
2%	O=C(NCc1cccc(F)c1)C1CCN(C(=O)c2ncn3c2COC(c2ccc(F)cc2)C3)CC1 (configuration not stated)
3%	O=C(NCc1ccccc1)c1ccccc1OC1CN(C2CCC2)C1

Further results
hNpr1 antagonist	molecule
3%	CCc1ccc(C(=O)N2C[C@@H](CO)[C@H](c3ccccn3)C2)cc1
3%	C1CNCC(c2nc(CCOCC3CC3)no2)C1 (configuration not stated)
1%	Cc1ccc(C2(O)CCN(C(=O)[C@@H](N)Cc3cnc[nH]3)CC2)nc1
1%	O=C(c1ccc2ccccc2n1)N1CCN(C(=O)N2CC3CC(C2)[C@H]2CCCC(=O)N2C3)CC1 (some centres not stated)
3%	COc1ccc(OC)c(S(=O)(=O)N2C[C@@H](Oc3cccnc3)C[C@H]2C(N)=O)c1
4%	Cc1ccccc1NC(=O)N1CCC(CCNC(=O)c2ccco2)CC1
0%	COCc1ccc(C(=O)N2CCNCC(C(=O)O)C2)cc1 (configuration not stated)
?	Cc1ccc(-c2cc(C(=O)N3CCC(Cc4nncn4CC4CC4)CC3)c3ccccc3n2)cc1C
4%	O=C(NCCc1ccc(Cl)cc1)c1nc(-c2ccc(F)cc2)c2ccccn12
-3%	O=C(c1ccoc1)N1CCC(Oc2ncccc2C(=O)N2CCOCC2)C1 (configuration not stated)
-10%	COc1ccc(C(=O)N[C@@H]2CCC[C@@H]2C(=O)NCCc2c[nH]c3ccc(OC)cc23)cc1
6%[70.6 µM]	O=C(NC1CCCCC1)N[C@H]1CO[C@H]2[C@@H]1OC[C@H]2O
?	O=C(Nc1cccc(-c2ccc(N3CCOCC3)nn2)c1)Nc1cccc(Cl)c1F
0%	CCOc1ccc(C(=O)N2CCC(N3C(=O)CCC3C(=O)NC(C)C)CC2)cc1 (configuration not stated)
1%	CC(C)N1CCCC2(CCN(C(=O)c3cn[nH]c3-n3cnnn3)C2)C1=O (configuration not stated)
-19%[70.6 µM]	CN(Cc1ccccc1C(F)(F)F)C(=O)Nc1ccc(Cl)cc1
2%	N#Cc1cc2c(nc1N1CCN(C3CCCC3)C(CCO)C1)CCCC2 (configuration not stated)
-6%	COCCN1CCCCCC(O)c2cc(C(=O)N3CCN(CC(C)C)CC3)ccc21 (configuration not stated)
-4%	COC1C(=O)N(CC2CC2)C12CCN(S(=O)(=O)C(C)C)CC2 (configuration not stated)
0%	COc1cc(NC(=O)Cn2c(-c3ccc(Cl)cc3)nc(C)c(CCO)c2=O)cc(OC)c1
1%	CCOc1ccccc1NC(=O)N1CCCC(Cn2cnc3cccnc32)C1 (configuration not stated)
-1%	CNC(=O)c1ccc(CN2CC3(CCN(C(C)=O)CC3)CC2C(=O)O)o1 (configuration not stated)
-6%	CC(C)c1cc(C(=O)NCC2OCCc3ccccc32)nc2ncnn12 (configuration not stated)
3%	CN(CCc1ccccc1)Cc1cnc(S(C)(=O)=O)n1Cc1ccccc1F
-22%	O=C(NCc1ccccc1)C1CCN(C(=O)c2ncn3c2COC(c2ccccc2)C3)CC1 (configuration not stated)
-1%	Cc1ncc2c(c1CNC(=O)c1cccc(-c3ncc[nH]3)c1)CCNC2
0%[70.6 µM]	CC1=NOC2(CCN(C(=O)c3ccc(C)cc3)C2)C1 (configuration not stated)
?	O=C(c1ccc(Br)cc1)N1CCN(c2cc(-c3ccc(Cl)cc3)[nH]n2)CC1
-1%[70.6 µM]	COCC(=O)Nc1ccc(-c2noc([C@@H]3CCCN3C(C)C)n2)cn1
-2%[70.6 µM]	O=C1N[C@@H]2CCN(C(=O)c3cccs3)[C@@H]2C(=O)N1c1ccc(Oc2ccccc2)cc1
1%	CC(C)n1cnnc1CC1CCCN(S(=O)(=O)c2ccc3c(c2)C(C)(C)C(=O)N3)C1 (configuration not stated)
1%	COc1ccc(CN(C)C2CCCN(CCc3ccccc3)C2)c(OC)c1OC (configuration not stated)
6%	CCc1nc(-c2c3n(c(=O)n(CC(=O)Nc4cccc(OC)c4)c2=O)CCCCC3)no1
?	O=C(NCc1cccc(F)c1)C1CCc2sc(C(=O)N3CCCCC3)cc2C1 (configuration not stated)
-7%	Cc1ccc(-c2nc(C)c(C(=O)Nc3ccc4c(c3)C(=O)N3CCC[C@H]3C(=O)N4)s2)cc1
-2%	c1cc(-c2cc3c(ccn3Cc3ccncc3)c(N3CCOCC3)n2)cc(N2CCOCC2)c1
6%	Cn1cnc(S(=O)(=O)N2CCCCC2c2nc(C3CC3)n[nH]2)c1 (configuration not stated)
5%[70.6 µM]	CC#CCn1cc2c3c(cccc31)[C@H](CC(C)C)N[C@H](C(=O)N1CCN(C(C)=O)CC1)C2
-5%[70.6 µM]	O=C1Cc2c(-c3cccc4ccccc34)n[nH]c2CN1CCc1ccncc1
-6%	CCC(C(=O)NCc1nnc2c(-c3nc(C(C)C)no3)cccn12)c1ccccc1 (configuration not stated)
-8%	CC(=O)N1CCC(C2CCN(S(=O)(=O)c3ccccc3Cl)C2)CC1 (configuration not stated)
5%	Cc1ncnc(N2CCC(N3CCCC(C(=O)NCc4ccccn4)C3)CC2)c1C (configuration not stated)
2%	Cc1noc([C@@H]2CN(C(=O)Cc3cccc4ccccc34)C[C@H]2CO)n1
0%	CN1C(=O)C(CC(=O)N2CCCCC2)=C2CCCCC21 (configuration not stated)
-15%[70.6 µM]	CC1(COc2cccnc2)COc2ccc(C(=O)N3CC[S+](=O)([O-])CC3)cc2N1 (configuration not stated)
?	CN(Cc1cccnc1)C(=O)CC(c1ccccc1)c1ccc(Cl)cc1 (configuration not stated)
10µM*	COc1ccc(CCCNc2cc(C3CC(O)C3)ncn2)cc1 (configuration not stated)
?	CN(Cc1ccc(-c2ccccc2)cc1)C(=O)Cc1ccccn1
?	CN(Cc1ncc[nH]1)c1ccc(-c2nc(CCCc3ccccc3)no2)cn1
0%	CC(=O)N[C@@H]1CNC[C@H]1CO

Next part.
hNpr1 antagonist	molecule
?	Oc1ccccc1CNC1(Cc2cc(-c3ccc(F)cc3)on2)COC1
-6%[70.6 µM]	CN(Cc1cccn1C)C(=O)C1CC1
0%	COCCC1(NC(=O)C2CCOCC2)CCN(C(=O)C2CCCCC2)CC1
0%[70.6 µM]	Cc1ccccc1N(C)C1CN(Cc2cccs2)C1
-3%	COc1cc(CN2C[C@@H]3C(=O)N(Cc4ccc5c(c4)OCO5)C(=O)[C@@H]3C2)cc(OC)c1
1%[70.6 µM]	COC1CCN(C(=O)Cc2c[nH]c3ncc(-c4cccnc4)cc23)CC1
5%	COc1ccc(C(=O)N[C@@H]2CN(S(C)(=O)=O)C[C@H]2CN(C)C)c(C)c1
2%	O=C(c1nc(-c2ccccc2)c2ccccn12)N1CCN(c2ncccn2)CC1
3%	COC[C@@H]1CN(C(=O)c2c(F)cccc2Cl)C[C@H]1C(N)=O
-2%	O=C1CCN(C(=O)c2cc3ccccc3[nH]2)CCCC(CO)CCN1 (configuration not stated)
3%	CCOc1cc(C)c(CN2C[C@@H](CN(C)C)C[C@H](CO)C2)cc1C(C)C
0%[70.6 µM]	Cc1ccccc1-c1[nH]nc2ncc(-c3cn[nH]c3)nc12
-20%	CNC(=O)[C@@H]1CN(Cc2ccc(C#N)cc2)C[C@H]1COC
4%[70.6 µM]	CC1(C)[C@H](Cc2cc(CN3CCOCC3)on2)C[C@@H]1N
-13%	Cc1nc(CCNC(=O)C2CNCCO2)nc2c1CCCC2 (configuration not stated)
1%	COc1ccc(CN2CCOC(c3cccnc3)C2)cc1Cn1cccn1 (configuration not stated)
0%	CCN(CC1CCCO1)C(=O)C1CCN(c2nc(-c3ccccc3)nc3c2CCC3)CC1 (configuration not stated)
-2%	COc1ccc(Cl)cc1C(=O)N1C[C@@H](CO)[C@H](c2ccccn2)C1
-2%	Cn1cc(-c2ccccc2)cc1C(=O)O
0%	CNC(=O)[C@@H]1C[C@@H](NC(=O)c2ccc3n[nH]nc3c2)CN1C(=O)CSC
1%	CCn1nc(CNC(=O)C2CC3(CCNCC3)CN2)c2ccccc21 (configuration not stated)
10%[70.6 µM]	CCOCCNc1cc(Cl)nc2ccnn12
-4%	O=C(NC1CCN(c2ccccc2)C1=O)c1cccc(Br)c1 (configuration not stated)
?	O=C(c1cncc(Br)c1)N1CCC(Cc2nc(C3CCOCC3)no2)CC1
-2%	CCOc1ccc(NC(=O)C2CCCCC(=O)N2)cc1 (configuration not stated)
0%	Cc1ccc(-n2c(C3CCN(C(=O)c4ccc(Cl)cc4)CC3)n[nH]c2=O)cc1
-2%	Cn1c(=O)n(C)c2cc(S(=O)(=O)NCC3(O)CCCNCC3)ccc21 (configuration not stated)
2%	O=C(CN1CCCCCC1)N1CC(Oc2ccccc2-c2nc(C3CC3)no2)C1
2%	CNc1ccnc(N2CCC3(CCCN(C4CCOCC4)C3=O)C2)n1 (configuration not stated)
-8%	COc1ccc2[nH]c3c(c2c1)CCNC31CCN(C(=O)c2cc(C)nn2C)CC1
0%	Cc1cc2c(c(=O)n(-c3ccccc3)c(=O)n2CC(=O)Nc2ccc3c(c2)OCO3)n1C
-7%	N#Cc1cccc(CN2CC3(COCC(=O)N(Cc4cccc(OC(F)(F)F)c4)C3)C2)c1
0%[70.6 µM]	CN(C)c1ccc(-c2noc([C@@H]3CCCN3C3CCOCC3)n2)cn1
0%	COCCNC(=O)[C@H]1C[C@H](Oc2cccnc2)CN1C(=O)Cc1c(C)noc1C
-6%	Cc1cn2nc(-c3nc(C4CCCN(C(=O)c5ccc(C)s5)C4)no3)cc2c(=O)[nH]1 (configuration not stated)
-1%	O=c1cc(-c2cccnc2)nc(-c2cccc(CN3CCNCC3)c2)[nH]1
0%	Cc1cccc(NC(=O)Nc2ccc(C)n(CC(=O)NCCN3CCCC3)c2=O)c1
-2%	COc1cc(=O)n2c(c1C(=O)Nc1ccc(F)cc1)CCCC2
2%	CN(C)[C@@H]1CN(Cc2ccc(F)cc2F)CC[C@@H]1CNC(=O)C1CC1
0%	CC(C)CC(NC(=O)c1cc(S(N)(=O)=O)ccc1F)c1cccnc1 (configuration not stated)

High-throughput results (PubChem BioAssay)
